Source: PubChem
CBX7 inh = CBX7 chromodomain binding inhibitors, primary screen, biochemical, AlphaScreen; AlphaScreen His6-CBX7 / biotin-H3K27me3 peptide binding; stronger effect = lower value; normalised signal (fraction of DMSO) (test concentration not listed); actives 1.1% (n = 66,000); in the data active means normalised signal below about 0.5;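 further: 100 nL library stock added to about 20 µL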
Target sequence (O95931 whole entry, looked up): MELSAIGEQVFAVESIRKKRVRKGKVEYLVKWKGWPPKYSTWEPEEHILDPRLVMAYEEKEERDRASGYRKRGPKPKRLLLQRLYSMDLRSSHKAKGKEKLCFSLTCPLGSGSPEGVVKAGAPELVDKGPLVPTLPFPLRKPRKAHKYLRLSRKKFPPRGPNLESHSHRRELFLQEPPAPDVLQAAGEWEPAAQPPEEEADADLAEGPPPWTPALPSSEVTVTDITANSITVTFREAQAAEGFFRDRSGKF
CBX7 inh z-score = second read-out of CBX7 inh, no call of its own (marks repeat the call); z-score; measured here: z-score of CBX7 signal; some inactives read as strong as hits; reference of the scale not given here;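 same signal on another scale; lower means less binding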
* hit, by the source's call. These rows are one share of the data; count on the stated rates, not on these rows.

#	Structure	CBX7 inh	CBX7 inh z-score
1	COc1cccc(-c2cc(C(=O)NCCc3ccc(OC)c(OC)c3)no2)c1	0.958	-0.479
2	CC1(C)CC(=O)Nc2cc(-c3ccccc3)n(-c3ccccc3)c2C1	0.789	-2.79
3	COc1ccc(-c2ccc(Cc3nc(-c4ccc(OC)cc4)no3)cc2)cc1	0.997	-0.0315
4	COc1ccc(C(=O)Nc2cc(-c3nc4cc(C)ccc4o3)ccc2Cl)cc1Cl	0.942	-1.19
5	CCC(=O)N1CCc2cc(S(=O)(=O)N(C)c3ccc(OC)cc3OC)ccc21	1.08	1.58
6	CC(=O)N1CCc2cc(S(=O)(=O)NCCC3=CCCCC3)ccc21	0.977	-0.757
7	COc1ccc(NC(=O)COc2ccc(N3CC(C(=O)NCC(C)C)CC3=O)cc2)cc1 (configuration not stated)	0.955	-1.11
8	CCOC(=O)c1cnc2ccc(OCC)cc2c1Nc1ccc(C)cc1C	0.938	-0.78
9	Cc1ccc2cc(CCNC(=O)c3ccc(Cl)cc3Cl)c(=O)[nH]c2c1	0.902	-1.27
10	O=C(NCc1ccc(F)cc1)c1nnc(Cc2ccc(Cl)cc2)o1	1.03	1.16
11	CCOc1ccc2nc(N3CCC(C(=O)N4CCCC4)CC3)sc2c1	0.988	-0.321
12	Cc1ccccc1NS(=O)(=O)c1ccc2[nH]cc(C(=O)N3CCCCC3)c(=O)c2c1	1.09	0.601
13	CCC(=O)N1CCc2cc(S(=O)(=O)NC(CC(C)C)C(=O)Nc3ccccc3C)ccc21 (configuration not stated)	0.934	-0.7
14	O=C(O)CCn1c(SCCOc2ccccc2)nc2ccccc21	1.19	2.1
15	CCCCn1c(CCCNC(=O)C(C)(C)C)nc2ccccc21	1.16	1.66
16	Cc1ccc(Nc2ccc(NCc3ccccc3)nn2)cc1C	0.908	-0.995
17	O=c1c2c(-c3ccccc3)csc2ncn1Cc1ccccc1Cl	0.947	-0.698
18	CCOc1ccc(-c2csc(NC(=O)CCCOc3ccc(Cl)cc3)n2)cc1	1.11	1.07
19	Cc1ccc(CN2CCN(CC(=O)NC3CCCC3)C2=O)cc1	1.08	1.52
20	COc1ccc(C(=O)Nc2nnc(Cc3cccs3)s2)cc1OC	1.09	0.85

Part of the list above, field by field:
4. COc1ccc(C(=O)Nc2cc(-c3nc4cc(C)ccc4o3)ccc2Cl)cc1Cl
  CBX7 inh: 0.942	CBX7 inh z-score: -1.19

10. O=C(NCc1ccc(F)cc1)c1nnc(Cc2ccc(Cl)cc2)o1
  CBX7 inh: 1.03	CBX7 inh z-score: 1.16

Next part.
#	Structure	CBX7 inh	CBX7 inh z-score
21	COc1ccc(N(C)C(=O)CCc2nc(-c3ccc(C)cc3)no2)c(OC)c1	0.936	-1.59
22	CN(Cc1ccccc1)S(=O)(=O)c1ccc(C(=O)Nc2nc(-c3ccncc3)cs2)cc1	0.972	-0.033
23	Cc1cccc(-n2c(Cc3cc(=O)[nH]c(=O)[nH]3)nnc2SCC(=O)Nc2ccc3c(c2)OCO3)c1	1.12	0.495
24	CC(C(=O)c1ccc(Cl)cc1Cl)n1cncn1 (configuration not stated)	0.717	-3.09
25	COc1ccc(NC(=O)C(NS(=O)(=O)c2cccs2)C(C)C)c(OC)c1 (configuration not stated)	0.951	-0.634
26	COc1ccc(NC(=O)c2cccnc2NCCc2ccccc2)cc1	1.05	0.917
27	O=C(O)CCCS(=O)(=O)c1nc(-c2cccs2)cc(C(F)(F)F)n1	1.04	0.404
28	Cc1ccc(NC(=O)Cn2cnc3sc(C(=O)NCCN4CCOCC4)c(C)c3c2=O)cc1Cl	1.21	0.735
29	Cc1cccc(N2C(=O)c3ccc(C(=O)Nc4ccccc4)cc3C2=O)c1	1.02	0.0249
30	CCc1ccccc1NC(=O)C(C(C)C)N1C(=O)c2ccccc2C1=O (configuration not stated)	0.834	-0.731
31	Cc1cccc(NC(=O)C2CCN(c3nc4ccccc4[nH]3)CC2)n1	1.02	0.276
32	Cc1ccc(Nc2nc3nonc3nc2Nc2ccc(O)cc2)cc1C	0.782	-1.56
33	O=C(Nc1cnc2ccccc2c1)NC1(c2ccccc2)CC1	0.956	-0.157
34	CN(CCC#N)C(=O)Cn1ncc2c1-c1ccccc1OC2	1.12	0.708
35	CCC1=Nc2cc(C(=O)NCCCN3CCc4ccccc4C3)ccc2Sc2ccc(C)cc21	0.807	-9.94
36	Cc1onc(-c2ccccc2)c1C(=O)Nc1ccc(S(=O)(=O)N2CCCCC2)cc1	0.928	-1.89
37	CCCOc1cccc(C(=O)Nc2ccc3oc(-c4ccc5ccccc5c4)nc3c2)c1	1.25	9.95
38	CC(Oc1ccccc1)C(=O)Nc1nc2c(s1)C(=O)CC(C)(C)C2 (configuration not stated)	0.982	-0.339
39	COc1ccc(-c2nn(C)c(=O)c3ccccc23)cc1CNC(=O)CN1CCOCC1	0.957	-1.08
40	O=C(Nc1cc(F)ccc1F)c1cnn(-c2ccc(F)cc2)c1C1CCNCC1	0.992	-0.318
41	Cc1cc2cc(CCNC(=O)c3ccc(Br)cc3)c(=O)[nH]c2cc1C	1.11	0.728
42	Cc1cccc(C(=O)NCCc2nc3ccccc3n2C)c1	1.05	0.69
43	O=C(O)c1[nH]c2ccccc2c1CC(=O)N1CCCCCC1	1.04	0.832
44	O=C(NC1CCCc2ccccc21)c1ccc2c(c1)NC(=O)C1CCCN21 (configuration not stated)	0.843	-0.69
45	Cc1nc(N)sc1-c1csc(Nc2ccccc2Cl)n1	0.704	-3.75
46	O=C1CC(c2ccc(Cl)c(Cl)c2)c2cc3c(cc2N1)OCO3 (configuration not stated)	0.9	-2.96
47	CCN(CCCNS(=O)(=O)c1ccc2c(c1)CCN2C(=O)C1CCC1)c1ccccc1	0.945	-1.54
48	Cn1nc(-c2ccc(N3CCCCC3)c(NC(=O)c3ccccc3)c2)c2ccccc2c1=O	0.979	-0.766
49	O=c1cc(Nc2ccc3c(c2)OCO3)[nH]c(=O)n1-c1ccc(Br)cc1	0.732	-4.49
50	Cc1ccc(OCC(=O)Nc2ccc3oc(-c4ccncc4)nc3c2)cc1	0.927	-0.866
51	O=C(Nc1ccc(Br)cc1)c1cc(-c2ccc3c(c2)OCO3)on1	1.02	0.258
52	CC(=O)Nc1ccc(Nc2nc(-c3cc4ccccc4o3)cs2)cc1	0.788	-3.4
53	O=C(Cn1ncc2c1-c1ccccc1OC2)NCCc1ccsc1	1.02	0.304
54	CC(C)CN(CCCNC(=O)c1csc2c1CCCCC2)CC(C)C	1.07	2.29
55	O=C(Nc1nc(-c2ccc(Br)cc2)cs1)c1ccc(S(=O)(=O)N2CCCCC2)cc1	0.988	-0.247
56	Cc1cccc(-c2nnc(SCC(=O)N3CCCCC3)o2)c1	0.939	-0.141
57	CCOc1ccc(NC(=O)N(CCN2CCOCC2)C2CCN(C(C)=O)CC2)cc1	0.985	-0.236
58	Cc1cc(=O)n2nc(N3CCC(C(=O)NCCCN4CC(C)CC(C)C4)CC3)sc2n1 (configuration not stated)	1.35	3.26
59	CC(Nc1oc(COc2ccccc2F)nc1C#N)c1ccccc1 (configuration not stated)	0.8	-2.54
60	COc1ccc(CNC(=O)C2C3C=CC4(CN(Cc5cccs5)C(=O)C24)O3)cc1 (configuration not stated)	1.24	3.71
61	O=C1CN(C(=O)COc2ccccc2)C(c2ccc(F)cc2)c2cc(Cl)ccc2N1 (configuration not stated)	0.733	-4.85
62	O=C(O)Cc1sc(Nc2ccc(Cl)cc2)nc1-c1ccccc1	1.05	1.36
63	COC(=O)CN(c1ccc(C)cc1)S(=O)(=O)c1ccc2c(c1)CCN2C(C)=O	1.27	3.51
64	O=c1c2c3c(sc2ncn1Cc1ccc(C(F)(F)F)cc1)CCC3	1.02	0.306
65	COc1ccccc1NC(=O)c1c(NCc2ccccn2)sc2c1CCCCC2	0.518	-6.76
66	CC(C)(C)c1ccc(OCc2nnc(NC(=O)c3ccc4ccccc4c3)s2)cc1	1.09	0.398
67	CCN(CCNC(=O)C1CCC(=O)N1Cc1ccc(C)cc1)c1ccccc1 (configuration not stated)	0.896	-2.06
68	CCOc1ccc(NC(=O)c2cnc(Nc3nc4ccccc4s3)nc2C)cc1	1.07	0.0897
69	Cc1nn(-c2ccccc2)c2sc(C(=O)OC(C)C)cc12	1.28	4.82
70	COc1ccc(-c2noc(CCC(=O)N(C)c3ccccc3F)n2)cc1	1.06	1.56
71	O=C(CSc1nnc(-c2ccc(Cl)s2)o1)Nc1nccs1	1.14	1.44
72	CCc1ccccc1NC(=O)c1cc(-c2ccc(Br)cc2)on1	1.05	1.95
73	COc1ccc(Cl)cc1C(=O)Nc1ccc2nc(N3CCCCC3)cc(C)c2c1	1.27	1.7
74	COc1c2ccoc2nc2c(OC)c(O)ccc12	0.919	-1.28
75	CCOC(=O)c1cnc2c(C)cc(C)cc2c1NCCc1ccccc1	1.88	8.51
76	CC(C)NC(=O)c1cnn2c(C(F)(F)F)cc(-c3ccc(Br)cc3)nc12	1.01	0.327
77	COc1ccccc1NC(=O)c1c(NC(=O)c2ccccc2F)sc2c1CCCCC2	0.956	-0.558
78	CCCCn1c(=N)n(CC(O)COc2ccccc2)c2ccccc21 (configuration not stated)	1.01	0.065
79	CCCOc1cc([N+](=O)[O-])cc2c1C(=O)Nc1ccccc1O2	0.832	-3.31
80	O=C(NCc1ccccn1)c1nnc(Cc2ccc(F)cc2)o1	0.887	-1.3

Four compounds out of the list above, arranged by the number in CBX7 inh z-score, largest number first:
# | SMILES | CBX7 inh z-score
64 | O=c1c2c3c(sc2ncn1Cc1ccc(C(F)(F)F)cc1)CCC3 | 0.306
77 | COc1ccccc1NC(=O)c1c(NC(=O)c2ccccc2F)sc2c1CCCCC2 | -0.558
79 | CCCOc1cc([N+](=O)[O-])cc2c1C(=O)Nc1ccccc1O2 | -3.31
65 | COc1ccccc1NC(=O)c1c(NCc2ccccn2)sc2c1CCCCC2 | -6.76

Later entries
#	Structure	CBX7 inh	CBX7 inh z-score
81	Clc1ccc(/C=C/c2nc3ccccc3n2CCCCOc2ccccc2)cc1	2.04	46.8
82	Cc1c(NC(=O)c2ccc(Cl)c(Cl)c2)cccc1-c1nc2ncccc2o1	1.03	1.02
83	Cc1cc(Cl)ccc1OCC(=O)Nc1ccc(-c2nc3ncccc3o2)cc1	0.947	-0.912
84	COc1cc(OC)c(N(C)C(=O)CCc2nc(-c3ccc(C)cc3)no2)cc1Cl	1.11	1.65
85	Cc1cc(NC(=O)c2cc(C(C)C)[nH]n2)ccc1Br	0.984	-0.38
86	Cc1ccc(NC(=O)CCc2nc(-c3cccs3)no2)cc1F	0.905	-0.0952
87	CCCCCCNC(=O)c1ccc2c(c1)ncn2-c1cc(C)cc(C)c1	0.787	-3.7
88	CCOc1ccc(S(=O)(=O)N(C)CCO)cc1-c1nc2c(C(C)(C)C)nn(C)c2c(=O)[nH]1	0.87	-1.82
89	CCOc1ccc(NS(=O)(=O)c2ccc3[nH]cc(C(=O)NC4CCCCC4)c(=O)c3c2)cc1	0.909	-1.69
90	COc1ccc(NC(=O)CCc2c(C)nc3c(-c4ccccc4)c(C)nn3c2C)cc1OC	0.684	-7.88
91	COc1ccc(CCn2c(=O)c3cccnc3n(CC(=O)Nc3cccc(C)c3)c2=O)cc1OC	0.87	-1.41
92	Cc1ccc(SCC(=O)Nc2nnc(CCS(=O)(=O)c3ccc(Cl)cc3)s2)cc1	0.965	-1.25
93	CC(c1cccnc1)N(CCN(C)C)C(=O)Nc1ccccc1 (configuration not stated)	1.01	0.568
94	CCOc1ccc(C(=O)NCCc2cc3ccc(C)c(C)c3[nH]c2=O)cc1OCC	1.04	0.777
95	O=C(c1ccc2c(=O)n3c(nc2c1)CCCCC3)N1CCCc2ccccc21	0.901	-0.131
96	Cc1ccc(CNc2oc(-c3ccccc3)nc2C#N)cc1	1.01	0.189
97	Cc1cc(NC(=O)c2cc(-c3ccc(F)cc3)on2)nn1Cc1ccc(Cl)cc1	1.05	2.03
98	Cc1cc(Oc2ccccc2F)nc(N)n1	0.788	-2.31
99	COc1ccc(N(C)C(=O)c2cnc(N3CCN(c4ncccn4)CC3)c3ccccc23)cc1	0.682	-5.49
100	COCCn1c(SCC(=O)Nc2ccc(F)cc2F)nnc1-c1c[nH]c2ccccc12	1.02	0.134
101	Cc1ccc2c(c1)C(c1ccccc1)N(C(=O)COc1ccc3ccccc3c1)CC(=O)N2 (configuration not stated)	0.793	-0.868
102	COc1ccc(-n2nc(C(=O)NCC(=O)NCc3cccnc3)c3ccccc3c2=O)cc1	0.965	-0.726
103	Cc1ccc(Cn2nnc3c(=O)n(Cc4ccc(C(F)(F)F)cc4)cnc32)cc1	0.828	-2.83
104	COc1ccc(NC(=O)c2cc(C(C)C)[nH]n2)cc1	1.01	0.179
105	COc1ccc(C)cc1NC(=O)COc1cc(=O)n(C)c2ccccc12	0.853	-2.41
106	COc1ccc(Nc2c(-c3ccc(F)cc3)nc3cnccn23)cc1	0.901	-0.952
107	COc1ccc2nc(NC(=O)c3ccc(C)c(C)c3)sc2c1	1.29	2.76
108	Cc1nc2ccc(S(=O)(=O)N(C)CC(=O)Nc3ccc(Cl)cc3)cc2s1	1.05	1.58
109	CCCCOc1cc(C)nc(N2CCOCC2)n1	1.04	1.13
110	Cc1ccc2cc(CCNC(=O)c3ccccc3C)c(=O)[nH]c2c1	1.05	2.17
111	CCn1c(C(=O)Nc2ccc(C)c(C)c2)cc2sc(Cl)cc21	1	0.00499
112	COCCCNc1oc(-c2ccc(F)cc2)nc1C#N	0.908	-0.401
113	Cc1cccc(C)c1NC(=O)c1cnn(-c2ccc(F)cc2)c1C1CCNCC1	1.03	0.482
114	O=C(Nc1cccnc1)c1cc(-c2cccc(Cl)c2)on1	1.03	0.796
115	COc1ccc(CCN2C(=O)C(Oc3ccccc3C)C2c2ccccc2Cl)cc1OC (configuration not stated)	0.901	-3.53
116	Cc1ccn2c(Nc3ccc4c(c3)OCCO4)c(-c3ccc(Cl)s3)nc2c1	1.24	2.52
117	COC(=O)c1ccc(Nc2nnc(-c3ccc(O)cc3)c3ccccc23)cc1	0.738	-2.95
118	Cc1ccn2c(NC(=O)c3cccc(Cl)c3)c(-c3ccccc3)nc2c1	0.982	-0.439
119	O=C1Nc2cc(C(=O)N3CCc4ccccc4C3)ccc2Nc2ccccc21	0.607	-3.15
120	c1ccc(C(Sc2nnc(-c3ccco3)o2)c2ccccc2)cc1	1.11	1.7
